Bioassay records from PubChem.
HPGD inh: inhibitors of human 15-hydroxyprostaglandin dehydrogenase (HPGD); P15428; purified HPGD, NADH fluorescence kinetic, PGE2 substrate; Potency, µM, without a hit: at the top dose activity change, negative = inhibition, most hits filed as inhibitors; 150,000 tested, 4.3% active; AID 894; active = well fitted inhibition curve with a large enough effect (not every such curve was filed as active); inconclusive = small, poorly fitted or top-dose-only effect, or another doubt; inactive = no such curve, though single readings can be large or run the other way;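 also: top concentration of the series not given in the record; plate controls included wells without enzyme; inactives centre near -10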
Target sequence (P15428 whole entry, looked up): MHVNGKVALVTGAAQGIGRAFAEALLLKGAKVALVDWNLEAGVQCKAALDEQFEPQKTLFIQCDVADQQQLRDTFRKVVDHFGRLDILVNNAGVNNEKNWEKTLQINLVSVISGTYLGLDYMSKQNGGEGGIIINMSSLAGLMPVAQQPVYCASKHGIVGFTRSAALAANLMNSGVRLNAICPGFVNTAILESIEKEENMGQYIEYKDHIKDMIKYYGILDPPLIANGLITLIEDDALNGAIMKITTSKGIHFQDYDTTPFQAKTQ
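20 nM HPGD preincubated 15 min at room temperature with compound in 50 mM Tris-HCl pH 8, 0.01% Tween 20. Started with 1 mM NAD+ and 30 uM prostaglandin E2; NADH fluorescence (360/450 nm) read 5 times over 30-s intervals, last minus first.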
An asterisk follows results filed as active; ? = inconclusive; & = joins results of further samples. % is scaled to controls: 0 for no effect and ±100 for the full control effect; potency is read from the fitted curve at half-maximal effect. These rows are one share of the data; count on the stated rates, not on these rows.

HPGD inh,smiles
-8%,Cc1ccc(/C=N/N2CCN(Cc3ccccc3)CC2)o1
-9%,O=C(/C=C/c1ccccc1)Nc1ccc(CN2CCOCC2)cc1
?,COC(=O)c1c(NC(=O)c2ccoc2C)sc2c1CCC2
-8%,Cc1cc(C)c(S(=O)(=O)NCC2CCC(C(=O)NCc3ccc4c(c3)OCO4)CC2)c(C)c1 (stereo not drawn)
-7%,CCCCC1S/C(=N/N=C/c2ccco2)NC1=O (stereo not drawn)
-5%,Cc1ccc(-c2nn(CC(=O)NC(C)c3ccccc3)c(=O)c3ccccc23)cc1 (stereo not drawn)
-27%,COCCNC(=O)C1CC(c2ccc([N+](=O)[O-])cc2)=NO1 (stereo not drawn)
16µM*,O=C(Nc1ccccc1)Nc1ccc(C(=O)N2CCOCC2)cc1
-12%,C=C1c2cc(C)ccc2NC(=O)N1c1ccc(C)cc1
-17%,O=C(Nc1ccc(Cl)cc1)c1ccc(-n2cccn2)c([N+](=O)[O-])c1
-6%,CCN(CC)C(=O)C1CCCN(Cc2ccc(N(C)C)cc2)C1 (stereo not drawn)
-2%,O=C(NN1CCOCC1)c1cccc2ccccc12
?,Cc1cc(SCCC(=O)O)nc2c(C)cccc12
-24%,CSC(=N/N=C(\N)c1cnccn1)SC
-9%,CC(C)(C)OC(=O)N1CCC(C(N)=O)CC1
-1%,COC(=O)C(C#N)c1nc2ccccc2nc1N1CCN(Cc2ccc3c(c2)OCO3)CC1 (stereo not drawn)
-9%,COc1cc(NC(=O)c2ccco2)ccc1NC(=O)c1ccccc1Cl
-3%,O=C(N[C@@H](c1ccccc1)[C@@H]1C[C@H]1C(=O)NCc1ccccc1)OCc1ccccc1
-14%,CCOC(=O)N1CCC(NC(=O)c2cc3sccc3n2CC)CC1
-9%,Cc1csc(NC(=O)CSc2nnc(Cc3cccn3C)n2-c2ccc(F)cc2)n1

Brought forward from above: 6 compounds; new compounds follow.
HPGD inh,smiles
-9%,CC(C)(C)OC(=O)N1CCC(C(N)=O)CC1
-1%,COC(=O)C(C#N)c1nc2ccccc2nc1N1CCN(Cc2ccc3c(c2)OCO3)CC1 (stereo not drawn)
-9%,COc1cc(NC(=O)c2ccco2)ccc1NC(=O)c1ccccc1Cl
-3%,O=C(N[C@@H](c1ccccc1)[C@@H]1C[C@H]1C(=O)NCc1ccccc1)OCc1ccccc1
-14%,CCOC(=O)N1CCC(NC(=O)c2cc3sccc3n2CC)CC1
-9%,Cc1csc(NC(=O)CSc2nnc(Cc3cccn3C)n2-c2ccc(F)cc2)n1
-18%,O=C(NCCC1=CCCCC1)C1CCCN(S(=O)(=O)c2cccnc2)C1 (stereo not drawn)
-4%,O=S1(=O)C[C@H]2NC(=S)N(c3ccccc3)[C@H]2C1
0%,CCOc1ccc(CN(CCO)CCO)cc1C(=O)OC
-12%,CC1CCCC(NC(=S)Nc2ccc(SC(F)F)cc2)C1C (stereo not drawn)
0%,NC(=O)c1oc2ccccc2c1NC(=O)c1ccccc1
-23%,Cc1ccc2nc(N3CCC(C(=O)O)CC3)nc(-c3ccccc3)c2c1
-11%,Cc1cccc(NC(=O)c2ccc([N+](=O)[O-])s2)c1C
-19%,O=c1c(O)c(-c2ccc(O)cc2)oc2ccc(O)cc12
-12%,Cc1ccc(S(=O)(=O)NCC(=O)Nc2ccc(C(F)(F)F)cc2)cc1
-20%,CCCn1c(=O)c(C(=O)NNS(=O)(=O)c2ccc(Cl)cc2)c(O)c2ccccc21
-15%,O=C(CSc1oc(-c2ccco2)nc1S(=O)(=O)c1ccccc1)NCC1CCCO1 (stereo not drawn)
-7%,COc1cc(OC)c2c(c1)OC(=O)CC2c1ccccc1OC (stereo not drawn)
-10%,COc1ccc2[nH]c(C)c(CCN(Cc3cccs3)C(=S)Nc3cccc(F)c3)c2c1
-11%,Cc1nnc(SCC(C)C)[nH]c1=O
?,CCc1c(C)n2nc(C)cc2[nH]c1=O
-4%,Cc1nc2nc(C)c(CCC(=O)NC(C)c3ccc4c(c3)OCCO4)c(C)n2n1 (stereo not drawn)
?,N#CCCn1c(=O)c(-c2cccs2)nc2cnc(Oc3ccccc3)nc21
-10%,O=C1c2ccccc2-c2ccc(N=[N+]([O-])c3ccc4c(c3)C(=O)c3ccccc3-4)cc21
-26%,COC(CNC(=O)c1ccc(N2CCc3ccccc32)c([N+](=O)[O-])c1)OC
-9%,O=C(NCCCNCc1ccccc1)c1ccccn1
-2%,Cn1c(=O)c2c(ncn2CC(O)CNc2ccc(Cl)cc2)n(C)c1=O (stereo not drawn)
-19%,COc1ccc(C(=O)NCc2ccccn2)cc1
10µM*,O=C(Nc1ccc(-c2nnc3n2CCCCC3)cc1)c1cnccn1
-11%,CC(=O)C1=C(O)C(=O)N(CCc2ccccc2)C1c1ccccc1[N+](=O)[O-] (stereo not drawn)
-8%,COC(=O)/C(=N/Nc1cccc(C)c1)N1CCCc2ccccc21
32µM*,COc1ccc(-c2nnc3ccc(SC)nn23)cc1
18µM*,COc1ccc(-c2n[nH]c(=S)n2C2CCCCC2)cc1
-3%,CCc1c(C)nc2ccc(Br)cc2c1SCCC#N
-16%,CCC(C)[C@@H](C(=O)Nc1ccc(OC)c(OC)c1)N1Cc2ccccc2C1=O (stereo partly drawn)
?,COc1cccc(-c2nn(C)c3sc(C(=O)NCc4ccc(C)cc4)cc23)c1
0%,NC1=NC2(CCCCC2)N(c2cccc(Cl)c2)C(N)=N1
-10%,COC(=O)N/N=C(\C)c1ccc2ccccc2c1OC(F)F
?,CCS(=O)(=O)Nc1cc(-c2nc3cccnc3s2)ccc1C
-21%,CCOC(=O)CSc1nc2sccc2c(=O)[nH]1
-15%,O=C(/C=C/c1ccccc1)OC1CC(O)C2(O)C=CO[C@@H](OC3OC(CO)C(O)C(O)C3O)C12 (stereo partly drawn)
25µM*,O=C(COc1ccc(Cl)cc1Cl)NCc1ccncc1
28µM*,CCn1c(CNc2cccc(Cl)c2)nnc1SCC(=O)OC1CCCCC1
?,CCCc1cc(C(=O)NNC(=S)Nc2cccc(C)c2)cs1
-14%,N#CCSc1nc2c(cc1C#N)CCCC2
-14%,Cc1ccc2[nH]c3c(N4CCCCCC4)ncnc3c2c1

Structures listed so far that have fluorine, in the order listed:
HPGD inh,smiles
-9%,Cc1csc(NC(=O)CSc2nnc(Cc3cccn3C)n2-c2ccc(F)cc2)n1
-12%,CC1CCCC(NC(=S)Nc2ccc(SC(F)F)cc2)C1C (stereo not drawn)
-12%,Cc1ccc(S(=O)(=O)NCC(=O)Nc2ccc(C(F)(F)F)cc2)cc1
-10%,COc1ccc2[nH]c(C)c(CCN(Cc3cccs3)C(=S)Nc3cccc(F)c3)c2c1
-10%,COC(=O)N/N=C(\C)c1ccc2ccccc2c1OC(F)F

Further compounds follow:
HPGD inh,smiles
-4%,CC1=C(C#N)C(=O)OC(C)(C)C1
-18%,CCN(CC)S(=O)(=O)c1cccc(C(=O)c2c(C)cc3ccccn23)c1
-19%,CCC(=O)Nc1sc2c(c1C(N)=O)CCN(C(C)=O)C2
-3%,O=c1cc(-c2cccc3ccccc23)[nH][nH]1
-11%,O=c1c(C=Nc2ccc(Oc3ccccc3)cc2)c[nH]n1-c1cccc(Cl)n1
-16%,Cc1ccc(Cl)cc1NC(=O)c1cccc(OC(F)F)c1
-2%,COCCn1nnnc1C(c1ccccc1OC)N1CCN(c2ccccc2)CC1 (stereo not drawn)
-8%,CCCN1Cc2cccc(C(=O)N3CCN(c4cc(Cl)ccc4C)CC3)c2C1=O
-6%,Cc1cc(OCC(=O)O/N=C(\N)c2ccccc2)ccc1Br
-6%,N#C/C(=C\c1ccc(-c2cccc(Cl)c2)o1)C(=O)Nc1cccc2cccnc12
-6%,CN1CCN(C2Cc3ccccc3Sc3ccc(S)cc32)CC1 (stereo not drawn)
-10%,Cc1ccc(C(=O)Nc2ccc(O)cc2C(=O)O)cc1
-2%,COc1ccc(C(=O)N2c3ccccc3C=CC2C#N)cc1 (stereo not drawn)
-5%,Cc1noc(C)c1S(=O)(=O)NCC(=O)O
-26%,Clc1ccccc1-c1ccc(/C=N/n2cnnc2)o1
-8%,COc1ccc2c(c1)C(=O)[C@H](OC(=O)Nc1cc(OC)c(OC)c(OC)c1)[C@@H](c1ccc(OC)c(Br)c1)O2
-16%,Cc1nc2sc3c(c2c(=N)n1N)CC(C)(C)OC3
-7%,CCn1c(SC/C=C/c2ccccc2)nnc1-c1cnccn1
-13%,COC(=O)C1=NN(c2ccccc2)C2C(=O)N(c3ccccc3OC)C(=O)C12 (stereo not drawn)
-10%,Cn1c(CN2CCOCC2)nc2cc(NC(=O)c3ccc(Cl)cc3)ccc21
0%,Cc1ccc(-n2nnnc2SCC(=O)N2c3ccccc3NC(=O)C2(C)C)cc1
-29%,O=C(NNc1nc2cc3c(cc2s1)OCO3)c1cccc(F)c1
-15%,COc1ccc(O)c(C(=O)c2cnn(C(=O)c3cc(C)oc3C)c2)c1
0%,C=CCSC1=C(C#N)C(c2ccccc2OCC)CC(=O)N1 (stereo not drawn)
-26%,CCCCCCSc1ncc(C#N)c(N)n1
-4%,NC(=O)[C@@H]1CCCCNc2c(I)cc([N+](=O)[O-])cc2C(=O)N[C@@H](CCC(=O)O)C(=O)N[C@@H](CO)C(=O)N1
-20%,O=C(Nc1ccc2oc(-c3ccccc3)nc2c1)c1ccccc1F
-13%,COc1ccc2c(c1)C1(Nc3ccccc3-c3nc4ccccc4n31)C(=O)N2 (stereo not drawn)
0%,O=C(CCNS(=O)(=O)c1cccs1)NCc1cccs1
-11%,O=C(c1ccccc1)c1ccccc1C(=O)N1CCCC1
-28%,COc1ccc2sc3ccccc3c(=O)c2c1
-8%,Cc1c(O)c2cccnc2[nH]c1=O
-2%,O=C(COC(=O)CNC(=O)c1ccccc1)Nc1nc(-c2ccccc2)cs1
-8%,COCCN(C(=S)Nc1ccc(OC)cc1)C1CCN(C(C)=O)CC1
-5%,O=C(OCC1OC2OC3(CCCCC3)OC2C2OC3(CCCCC3)OC12)c1ccccc1 (stereo not drawn)
-4%,Cc1ccc(C(=O)NCCCC(=O)O)o1
3%,Cc1onc(-c2ccccc2Cl)c1C(=O)NCCN1Cc2ccccc2C1=O
-13%,Cc1cc(C)n2cc(CSc3nc4ccccc4[nH]3)nc2n1
-24%,O=C(CNC(=O)c1cccs1)OCC(=O)c1ccc2ccccc2c1
-11%,COc1cc(NC(=O)c2ccco2)c(OC)cc1NC(=O)Nc1ccc(Cl)cc1
?,COc1cc(NC(=O)c2ccc3c(c2)OCO3)ccc1NC(=O)c1ccco1
0%,Clc1cccc(/C=N/Nc2nnc(Cl)c3ccccc23)c1
-14%,Cn1c(O)c(C2=c3ccccc3=NC2=O)[nH]c1=S
-8%,Nc1cnn([C@@H]2O[C@H](CO)[C@@H](O)[C@H]2O)c(=O)n1
-8%,Cc1oc(-c2cccc(Cl)c2)nc1CN1CCC(C(=O)NCCCN2CCCC2=O)CC1
?,CC1(C)Oc2ccc3ccc(=O)oc3c2CC1=O
-10%,O=C(Nc1cccc(F)c1)C1CCN(c2nnnn2-c2ccccc2)CC1
-6%,N/C(COc1cccc(C(F)(F)F)c1)=N\NC(=O)c1cccnc1Oc1ccccc1
-9%,COC(=O)c1ccc(C(C(=O)NC2CCCCC2)N(CCc2ccccc2)C(=O)Cc2cccs2)cc1 (stereo not drawn)
-24%,C=CCn1c(SCC(=O)Nc2cccc(C)c2)nnc1-c1cnccn1
-9%,CC(=O)N1CCc2cc(S(=O)(=O)NCCC(=O)N3CCN(c4ccccn4)CC3)ccc21
?,CCOC(=O)COc1ccc2c(c1)C(=O)CC1(CCN(C(C)=O)CC1)O2
-15%,COc1ccc(/C=N/n2c(C)nnc2C)c(OC)c1
3%,C/C(=N\NC(N)=S)C1(C)CCCCC1
?,COc1ccc2cc(/C=N/NC(=O)CN(c3ccccc3)S(=O)(=O)c3ccccc3)c(Cl)nc2c1
2%,CCCS(=O)(=O)N1CCC(C(=O)N2CCc3ccccc3C2)CC1
-8%,COc1ccc(NS(=O)(=O)c2ccc(S(=O)(=O)N3CCCC3)cc2)cc1Cl
-19%&-13%,C[C@]1(C(=O)NCc2cc(F)cc(C(F)(F)F)c2)C=C[C@@H](Cc2ccccc2)N1C(=O)c1ccccc1
-9%,COc1ccc(N(CC(=O)NCc2ccc(C)cc2)S(=O)(=O)c2c(C)nn(C)c2C)cc1
?,CN1CCCc2cc(C#N)c(=O)[nH]c21

The list goes on:
HPGD inh,smiles
-12%,COC(=O)c1cc2occc2n1CC(=O)Nc1ccc(OC)c(OC)c1
?,COc1ccccc1C1CC(c2c(-c3ccccc3)c3cc(Cl)ccc3[nH]c2=O)=NN1S(C)(=O)=O (stereo not drawn)
-1%,O=C(Nc1ccc(Cl)cc1)C1CC2CCCC(C1)C2=O (stereo not drawn)
-8%,CC(C)NC(=O)N1CC[C@@]2(CCCN(C(=O)c3ccncc3)C2)C1
-7%,COC(=O)c1ccccc1NC(=S)N(Cc1ccc2c(c1)OCO2)Cc1cc2ccc(C)cc2[nH]c1=O
-13%,CCN(CCNc1ccc(Cl)cc1[N+](=O)[O-])C(=O)c1cc([N+](=O)[O-])c(N(C)C)cc1OC
?,CC(C)n1nnc2cc(C(=O)O)ccc21
-2%,Cc1ccc(S(=O)(=O)NNC(=O)c2ccncc2)cc1
-22%,CCN1CCN(C(=S)Nc2ccc(Cl)c(Cl)c2)CC1
-11%,Cc1[nH][nH]c(=O)c1C(c1cc([N+](=O)[O-])ccc1O)c1c(C)[nH][nH]c1=O
?,COC(=O)c1ccc(C(=O)OC)c(NS(=O)(=O)c2ccc(NC(C)=O)cc2)c1
-6%,CS(=O)(=O)c1nc2ccccc2n1Cc1ccccc1
-4%,c1ccc(-n2nnnc2NC2CCCCCC2)cc1
